Compound activity as filed in PubChem.
TRPML1 agonist: agonists of human TRPML1 channel; Q9GZU1; TRPML1-expressing cells, Ca2+ dye fluorescence, FDSS; host cell line not named in the record; reference of the full effect not given here; activation, % (test concentration not listed); 0.12% of 410,000 active; AID 624414; in the data active = activation above about 50%; inconclusive = about 30% to 50%; inactive = below about 30%; note: 0% is about no effect; the text of the record puts the active cut at 80%
Target sequence (Q9GZU1 whole entry, looked up): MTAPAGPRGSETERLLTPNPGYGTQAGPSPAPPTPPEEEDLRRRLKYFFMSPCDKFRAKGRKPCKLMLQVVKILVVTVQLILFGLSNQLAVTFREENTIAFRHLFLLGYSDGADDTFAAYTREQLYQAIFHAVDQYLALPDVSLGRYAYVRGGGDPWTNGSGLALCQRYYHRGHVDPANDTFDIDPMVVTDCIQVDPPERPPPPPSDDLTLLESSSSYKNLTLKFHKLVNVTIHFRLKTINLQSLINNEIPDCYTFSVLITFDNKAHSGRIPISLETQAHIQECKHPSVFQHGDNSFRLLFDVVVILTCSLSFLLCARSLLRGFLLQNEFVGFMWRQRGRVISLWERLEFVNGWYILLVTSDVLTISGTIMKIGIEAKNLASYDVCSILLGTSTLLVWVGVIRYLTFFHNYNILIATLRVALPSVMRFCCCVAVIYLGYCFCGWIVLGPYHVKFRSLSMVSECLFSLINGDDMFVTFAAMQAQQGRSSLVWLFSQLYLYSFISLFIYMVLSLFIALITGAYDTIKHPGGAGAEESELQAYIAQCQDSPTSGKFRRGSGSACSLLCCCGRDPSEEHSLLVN
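In this qHTS format, compounds were pin-transferred onto Ca8-dye-loaded TRPML1-DL cells induced with Tet overnight, and intracellular Ca2+ fluorescence was recorded kinetically for 110 s after a 10 s baseline. A subsequent 4uM final 54-4 (EC80) addition followed by a second 110 s read served as the antagonist phase.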
CtBP-E1A inh: CtBP/E1A binding inhibition; AlphaScreen GST-E1A/His-CtBP binding, 1536-well; stronger effect = lower value; control for the full effect not named in the record; activity change, % (test concentration not listed); 0.49% of 340,000 active; in the data active means activity change below about -65%; inconclusive means about -30% to -65%; inactive means above about -30%; note: % is set by controls: 0 for no effect and ±100 for the full control effect; compound concentration not given in the record
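GST-E1A and His-tagged CtBP (125 nM each as 5X stock) were preincubated with pin-transferred compound for 2 h at 37 °C in the dark, then glutathione donor and nickel acceptor beads were added for 1 h before AlphaScreen reading.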
D2 potentiator: human D2 receptor positive allosteric modulation; AID 624464; DiscoveRx D2 beta-arrestin cells, luminescence, 90 min; 100% = 57 uM dopamine signal; P14416; 0.23% of 360,000 active; potentiation, % (test concentration not listed); active = potentiation of 50% or more; inconclusive = 30% to 50%; inactive = 30% or less;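 note: compound concentration not given in the record; tested on top of an EC20 dose of dopamine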
Target sequence (P14416 whole entry, looked up): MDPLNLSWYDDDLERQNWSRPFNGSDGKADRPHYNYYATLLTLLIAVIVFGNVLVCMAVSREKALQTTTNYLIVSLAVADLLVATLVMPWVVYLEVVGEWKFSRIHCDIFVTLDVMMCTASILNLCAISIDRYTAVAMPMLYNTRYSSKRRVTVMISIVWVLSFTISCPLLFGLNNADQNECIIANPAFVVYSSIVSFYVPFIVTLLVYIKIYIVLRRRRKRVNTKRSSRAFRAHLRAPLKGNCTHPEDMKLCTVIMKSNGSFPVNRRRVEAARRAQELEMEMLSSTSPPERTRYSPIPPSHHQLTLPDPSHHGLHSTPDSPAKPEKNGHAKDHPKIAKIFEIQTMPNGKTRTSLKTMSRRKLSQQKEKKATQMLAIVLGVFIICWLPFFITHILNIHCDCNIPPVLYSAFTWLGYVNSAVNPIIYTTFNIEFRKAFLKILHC
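D2 cells co-treated with compound plus 50 nM dopamine (EC20) for 90 min at 37 deg C to detect potentiation. Beta-arrestin recruitment was read as enzyme-fragment luminescence after 1 h at ambient temperature. Full response was set by 57 uM dopamine.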
D2 agonist: activates the human D2 dopamine receptor. P14416. DiscoveRx PathHunter D2 beta-arrestin, luminescence, 90 min; 100% = 57 uM dopamine signal. activation, % (no concentration beside the values). 0.084% of 360,000 active; in the data active = activation above about 40%; inconclusive = about 15% to 40%; inactive = below about 15%; note: compound concentration not given in the record; the text of the record calls up to 30% inactive
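DiscoveRx PathHunter D2 beta-arrestin cells (2,100/well) attached overnight, then compound-stimulated 90 min at 37 C in HBSS/10 mM HEPES/0.1% Tween-20 buffer; beta-galactosidase complementation read by luminescence after 1 h at ambient temperature. Dopamine 57 uM final (EC100) as control.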
Six1-Eya2 inh: Six1/Eya2 interaction inhibition | Q15475+O00167 | AlphaScreen GST-Six1/His-Eya2 binding, biochemical; stronger effect = lower value; control for the full effect not named in the record | activity change, % (test concentration not listed) | 0.56% of 360,000 active; in the data active = activity change below about -65%; inconclusive = about -30% to -65%; inactive = above about -30%; note: % is set by controls: 0 for no effect and ±100 for the full control effect; compound concentration not given in the record
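AlphaScreen luminescence read after one hour at 37 °C in darkness. Pin-transferred compounds met GST-Six1 and His-Eya2 protein (5X stock 250 nM/500 nM) plus glutathione donor and Ni-chelate acceptor beads (5X, 50 ug/mL).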
PINK1 modulator: changes PINK1 expression. 0.2% of 410,000 active. PINK1 immunofluorescence, high-content cytometry, 24 h. Potency, µM (doses to about 76.6 µM), for inactives: at the highest dose activation (PINK1 increase), usual class: activators; active = well fitted activation curve with a large enough effect; inconclusive = small, poorly fitted or top-dose-only effect; inactive = flat fitted curve, though single readings scatter; cell line not stated here;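 note: potency is the fitted concentration of half-maximal effect; % of control where 0% means no effect; nearly all actives have a fitted effect of over 65% in size; a mitochondrial uncoupler was the plate control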
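Fluorescence from anti-PINK1 antibody, together with nuclear and cell stains, was scanned on a laser-scanning cytometer. Before staining, stable-line cells were incubated 24 hours with compounds at 5 concentrations; primary antibody 12 h at 10 degrees C.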
The depositor's hits bear a star; ? = inconclusive; nt = not tested or not shown; [ ] = another dose, or the depositor's remark.

entry	smiles	TRPML1 agonist	CtBP-E1A inh	D2 potentiator
1	CCOC(=O)c1c(C)n(CC(O)CN(CC)CC)c2cc(Br)c(OC)cc12 (configuration not stated)	-0.6	5	-16
2	COc1ccc2oc3cc(C)[n+]([O-])c(-c4ccc(Cl)cc4)c3c2c1	-0.7	5	-2
3	CCOc1ccccc1N(C(=O)c1snc(C(N)=O)c1N)C(CC)C(=O)NC1CCCC1 (configuration not stated)	2.2	7	-5
4	Cc1cc(C)c2nc(C(F)(F)F)nc(NCCCN3CCOCC3)c2c1	0.4	-9	-12
5	CCN1C(=O)/C(=C\N2CCN(c3cccc(Cl)c3)CC2)SC1=S	-1.1	-2	-12
6	O=C1c2ccccc2C(=O)N1OCCOCCOCCON1C(=O)c2ccccc2C1=O	6.5	2	28
7	Cc1ccc(-c2nc3ncccn3c2NC2CCCCC2)o1	3.0	5	9
8	O=c1cc(CSc2nnc(COc3ccccc3Cl)o2)nc2sccn12	-0.3	11	13
9	CCCCC(CC)C(=O)Nc1ccc(C#N)cc1 (configuration not stated)	8.9	10	0
10	CCCN(CC(=O)Nc1ccccc1C)C(=O)c1cccc(S(=O)(=O)N2CCc3ccccc3C2)c1	1.2	-6	-12
11	NC(=O)C1CCN(c2nc3ccccc3nc2NS(=O)(=O)c2ccc(Br)cc2)CC1	1.9	-20	-7
12	Nc1nccc(N2CCCCC2)n1	21	2	-7
13	COc1ccccc1NC(=O)c1ccccc1N(Cc1ccccc1)S(C)(=O)=O	nt	nt	-10
14	CCn1cc([N+](=O)[O-])c(C(=O)N2N=C(c3ccc(O)c(OC)c3)CC2c2ccccc2O)n1 (configuration not stated)	0.1	-11	-31
15	CCOC(=O)Cc1nnc(NCc2ccccc2)c2ccccc12	1.1	6	-6

entry	D2 agonist	Six1-Eya2 inh	PINK1 modulator
1	-5.8	-7	-0.8%
2	-9.0	0	1.9%
3	1.4	7	0.1%
4	-3.1	-4	-1.1%[38.3 µM]
5	-0.2	-4	14%
6	1.9	-2	-1.5%
7	2.4	-13	-1.1%
8	-0.7	-9	nt
9	1.2	5	0.7%
10	-2.5	-4	5.6%
11	1.1	-8	-0.3%
12	-7.2	-3	2.9%
13	-5.6	-1	2.4%
14	-4.1	-12	-2.8%
15	1.1	-6	-1.3%

Carrying on:
entry	smiles	TRPML1 agonist	CtBP-E1A inh	D2 potentiator
16	O=C(N/N=C/c1c[nH]c2ccc(Br)cc12)c1ccc2c(c1)OCO2	4.1	-18	-7
17	Cc1ccc2c(CC(=O)NNC(=O)c3ccccc3)coc2c1	0.1	-24	0
18	Clc1ccc(OCCSc2ncccn2)c2ccccc12	0.5	39	-14
19	Oc1ccc(Cl)cc1-c1cc(-c2ccccc2Cl)[nH]n1	1.6	5	-13
20	O=C(NS(=O)(=O)Nc1ccccc1)C1=C(N2CCCC2)COC1=O	0.5	nt	-20
21	COc1ccc(/C=N/NC(=O)c2[nH]c3ccc(C)cc3c2-c2ccccc2)c(C(=O)O)c1OC	2.0	-25	1
22	CCCN(C)C1CN(Cc2cn(Cc3ccc(Cl)cc3)nn2)S(=O)(=O)C1 (configuration not stated)	-0.5	4	nt
23	Oc1cccc(/C=N/Nc2cccc3cccnc23)c1	-0.5	-4	-6
24	CCc1nn(C(C)C(=O)N2CCc3ccccc3C2)c(=O)c2cc3occc3n12 (configuration not stated)	0.2	4	5
25	C=CCn1c(SCC(=O)Nc2ncc(Cc3ccc(C)c(Cl)c3)s2)nnc1-c1ccncc1	0.5	-20	-7
26	CCn1ncc(S(=O)(=O)NCc2ccco2)c1C	-0.6	0	3
27	CCOc1ccc(/C=N/NC(=O)Cc2csc(Nc3cccc(C(F)(F)F)c3)n2)c(OCC)c1	0.7	-10	-8
28	Oc1ccc(COCc2ccccc2)c2cccnc12	0.2	-98*	-11
29	Cc1ccc(C(=O)CCC(=O)OCC(=O)NNC(=O)c2ccc([N+](=O)[O-])cc2)cc1	-0.4	11	28
30	COC1OC(c2ccccc2)=C(c2cnc(N)nc2)c2ccc(F)cc21 (configuration not stated)	0.7	-6	nt

entry	D2 agonist	Six1-Eya2 inh	PINK1 modulator
16	-1.9	-15	3.4%
17	1.8	-22	1.6%
18	-3.2	28	nt
19	-0.8	1	10%
20	-3.1	1	2.3%
21	3.4	-21	-1.6%
22	nt	0	-0.4%
23	-1.6	-12	2.8%
24	-6.9	-5	1.6%
25	-7.1	-5	0.6%
26	-2.2	4	0.3%
27	-5.6	-12	1.4%
28	-0.6	-90*	2.2%
29	0.5	9	-1.9%
30	nt	-14	-0.6%

(list continues)
entry	smiles	TRPML1 agonist	CtBP-E1A inh	D2 potentiator
31	COc1ccc(S(=O)(=O)N(C)C[C@H]2OCCCC[C@H](C)Oc3ccc(NC(=O)Nc4ccc(F)cc4)cc3C(=O)N([C@H](C)CO)C[C@H]2C)cc1	-0.7	-3	7
32	CCc1ccc(NC(=O)COC(=O)/C(=C/c2ccccc2OC)c2ccccc2)cc1	1.9	0	1
33	CCCCCN(C(=O)CCCSc1nncs1)c1c(N)n(CCCC)c(=O)[nH]c1=O	0.7	nt	-12
34	COc1ccc(Br)cc1C(=O)NC(=S)Nc1c(C)n(C)n(-c2ccccc2)c1=O	1.5	0	-1
35	Cc1ccc(C(=O)N/C(=C/c2ccco2)C(=O)N2CCOCC2)cc1	0.3	-11	-14
36	CC(C)C(OC(=O)/C=C/c1ccc2c(c1)OCO2)C(=O)NC(N)=O (configuration not stated)	0.7	5	1
37	CCOC(=O)c1cnn(-c2ccccc2)c1-c1ccccc1	1.3	10	4
38	N=C1/C(=C\c2ccc(OC(=O)c3ccco3)cc2)C(=O)N=C2SC=NN12	2.4	-28	-5
39	O=C(CCc1nnc2ccc(NCc3ccco3)nn12)Nc1cccc(F)c1	1.3	-13	0
40	CCOC(=O)/C=C1\Nc2ccccc2OC1=O	-0.4	-21	3
41	O=c1cc(/C=C/c2ccccc2)oc2ccccc12	-0.5	-18	-17
42	COC(=O)c1ccc(C(=O)OC)c(NC(=O)COC(=O)CC2CC3CCC2C3)c1 (configuration not stated)	1.0	26	-7
43	Cc1ccc(NC(=O)c2ccc(C#CC3(O)CCCCC3)cc2)cc1C	1.3	9	10
44	O=[N+]([O-])c1ccc(/C([O-])=C(/C(=S)Nc2ccccc2F)[n+]2ccccc2)cc1	0.1	-6	-1
45	C=CCOc1ccc2c(c1)c(S(=O)(=O)c1ccc(C)cc1)cn2COC	3.1	8	-1

entry	D2 agonist	Six1-Eya2 inh	PINK1 modulator
31	0.9	-9	4.1%
32	-0.3	4	2.1%
33	3.2	8	-2.9%
34	1.5	-8	0.1%
35	-3.7	-5	-0.7%
36	-2.3	-1	1.7%
37	1.6	7	-0.7%
38	-0.6	-30	-0.4%
39	1.6	-2	1.5%
40	1.9	-3	-1.4%
41	-1.0	-9	-1.9%[38.3 µM]
42	-3.5	27	2.8%
43	3.4	-2	?
44	-2.6	15	-0.5%
45	-3.3	1	nt

Carrying on:
entry	smiles	TRPML1 agonist	CtBP-E1A inh	D2 potentiator
46	CCOc1ccc(C(=O)Nc2cccc(-c3nc4ccccc4[nH]3)c2C)cc1[N+](=O)[O-]	1.7	7	-19
47	Cc1nc(C)c(-c2csc(Nc3ccc(N)cc3)n2)s1	nt	nt	27
48	COCC(=O)N1CCC(Oc2ccc(C(=O)NCc3cc(C)n(C)n3)cc2)CC1	-0.4	-3	-11
49	COc1ccc(C(CNC(=O)CNC(=O)c2cccc(C)c2)N2CCCCC2)cc1 (configuration not stated)	0.3	4	-34
50	S=c1[nH]nc(NCCc2ccccc2)s1	0.1	4	-9
51	CCOC(=O)c1c(C)[nH]c(O)c1C=Nc1ccc(C(F)(F)F)cc1	1.0	-19	-19
52	CCCCNC(=O)CSc1nc2ccc(N3CCOCC3)cc2c(=O)n1CCc1ccccc1	-0.5	-13	-4
53	O=C(CCNC(=O)Cn1ccc2ccccc2c1=O)NCCc1ccc(Cl)cc1	1.3	-4	9
54	O=C1c2ccccc2-c2ncnc3c(N4CCOCC4)cc(N4CCOCC4)c1c23	-1.4	-20	-5
55	CCN(CC)S(=O)(=O)c1ccc(N/N=C/c2ccccc2OCC(=O)O)c([N+](=O)[O-])c1	-0.1	-6	-3
56	CC(OC(=O)c1ccc(Cl)cc1O)C(=O)NCCC1=CCCCC1 (configuration not stated)	0.6	-4	-20
57	O=C(Nc1ccc(F)c(F)c1)c1ccco1	-0.1	15	-2
58	Cc1ccccc1-n1c(=O)n(Cc2ccco2)c(=O)c2[nH]cnc21	0.6	0	-8
59	S=c1[nH]nc(-c2cc(-c3ccco3)[nH]n2)n1-c1cccc2ccccc12	0.4	-25	-7
60	COc1ccc(-c2nc3n(c2C)CCC3)cc1	-0.1	1	-10

entry	D2 agonist	Six1-Eya2 inh	PINK1 modulator
46	-3.0	1	0.3%
47	?	-1	4.8%
48	-5.6	0	-4.0%
49	-5.3	5	-1.6%
50	-2.0	4	-1.0%
51	-4.8	?	9.1%
52	-2.8	3	?
53	-7.3	-3	6.4%
54	-4.8	-30	0.1%
55	1.8	-19	-0.4%
56	-3.2	3	?
57	-4.5	3	1.4%
58	-6.7	-3	-1.9%
59	-2.2	-28	-2.0%
60	0.8	0	4.3%

More entries.
entry	smiles	TRPML1 agonist	CtBP-E1A inh	D2 potentiator
61	Cc1ccccc1OCC(=O)Nc1ccc(C(=O)Nc2ccccc2C(=O)O)cc1	2.5	-18	?
62	COC(=O)c1sc(NC(=S)NC(=O)c2ccc(C)cc2)nc1C	-0.3	0	-1
63	Cc1cccc2sc(N(CCCN(C)C)C(=O)c3ccco3)nc12	-0.5	?	-18
64	Cc1cc(C)c(S(=O)(=O)n2ccc3ccccc32)c(C)c1	4.6	6	8
65	O=C(NC1CCC(O)CC1)c1ccc(-c2ccc(Cl)cc2)o1 (configuration not stated)	-0.3	-1	-1
66	Cc1c(C(=N)C(C#N)C#N)c(=N)oc2c1ccc1ccccc12	-0.4	nt	-7
67	Cc1cc2nc(C3CCN(C(=S)NCC(C)C)CC3)[nH]c2cc1C	0.4	0	-9

entry	D2 agonist	Six1-Eya2 inh	PINK1 modulator
61	0.5	-30	-0.7%
62	1.7	1	4.6%
63	-0.6	-9	1.7%
64	0.8	46	40µM*
65	0.4	-6	-2.0%
66	0.4	-10	0.0%
67	-2.1	-7	1.8%

From no. 61 up to 63, copied from above:
entry	smiles	TRPML1 agonist	CtBP-E1A inh	D2 potentiator
61	Cc1ccccc1OCC(=O)Nc1ccc(C(=O)Nc2ccccc2C(=O)O)cc1	2.5	-18	?
62	COC(=O)c1sc(NC(=S)NC(=O)c2ccc(C)cc2)nc1C	-0.3	0	-1
63	Cc1cccc2sc(N(CCCN(C)C)C(=O)c3ccco3)nc12	-0.5	?	-18

entry	D2 agonist	Six1-Eya2 inh	PINK1 modulator
61	0.5	-30	-0.7%
62	1.7	1	4.6%
63	-0.6	-9	1.7%
